From PubChem
MT1-MMP act inh: inhibitors of human MT1-MMP activation | HT1080 RFP-PRO-GFP cells, GFP/RFP ratio fluorescence, overnight; percent of plate control window, DMSO zero | P50281 | 0.061% of 360,000 active | GFP/RFP ratio change, % at 20 µM;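 active means GFP/RFP ratio change of at least 30% with cell ATP level not reduced by more than half and red fluorescence within 50% of control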; further: strong numbers were not always called active
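Material: RFP-PRO-GFP reporter HT1080 cells. Dosing: single-point 20 µM compound, 1% DMSO. Controls: DMSO and RFP-L50D-GFP cell wells. Timing: cells overnight before dosing, compound overnight, 37 °C, 5% CO2. Measure: GFP/RFP fluorescence ratio.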
eIF4H FP inh: inhibitors of RNA binding by human eIF4H | eIF4H fluorescence polarization binding assay | inhibition, % at 35 µM | 0.94% of 290,000 active;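 active means 50% or more with normal probe brightness, or confirmed in later tests; inconclusive means above 50% with abnormal brightness, or retests that disagree; inactive means below 50% or failed in later tests; about a fifth of its hits are not listed in these tables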;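 further: calls also rest on retests at 20 µM and on dose response follow-up; 0% = protein and probe with vehicle and 100% = probe without protein; strong numbers were not always called active; many hits fall short of the cut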
PABP FP inh: PABP-poly(A) binding inhibition; P11940; PABP-poly(A) RNA binding, fluorescence polarization; 1% of 290,000 active; AID 2014; inhibition, % at 35 µM;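 active means 50% or more with normal probe brightness, or confirmed in later tests; inconclusive means above 50% with abnormal brightness, or retests that disagree; inactive means below 50% or failed in later tests; about a fifth of its hits are not listed in these tables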;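 further: calls also rest on retests at 20 µM and on dose response follow-up; controls were probe without protein and protein plus probe with vehicle; some compounds called inactive have numbers as strong as hits; many hits fall short of the cut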
Target sequence (P11940 whole entry, looked up): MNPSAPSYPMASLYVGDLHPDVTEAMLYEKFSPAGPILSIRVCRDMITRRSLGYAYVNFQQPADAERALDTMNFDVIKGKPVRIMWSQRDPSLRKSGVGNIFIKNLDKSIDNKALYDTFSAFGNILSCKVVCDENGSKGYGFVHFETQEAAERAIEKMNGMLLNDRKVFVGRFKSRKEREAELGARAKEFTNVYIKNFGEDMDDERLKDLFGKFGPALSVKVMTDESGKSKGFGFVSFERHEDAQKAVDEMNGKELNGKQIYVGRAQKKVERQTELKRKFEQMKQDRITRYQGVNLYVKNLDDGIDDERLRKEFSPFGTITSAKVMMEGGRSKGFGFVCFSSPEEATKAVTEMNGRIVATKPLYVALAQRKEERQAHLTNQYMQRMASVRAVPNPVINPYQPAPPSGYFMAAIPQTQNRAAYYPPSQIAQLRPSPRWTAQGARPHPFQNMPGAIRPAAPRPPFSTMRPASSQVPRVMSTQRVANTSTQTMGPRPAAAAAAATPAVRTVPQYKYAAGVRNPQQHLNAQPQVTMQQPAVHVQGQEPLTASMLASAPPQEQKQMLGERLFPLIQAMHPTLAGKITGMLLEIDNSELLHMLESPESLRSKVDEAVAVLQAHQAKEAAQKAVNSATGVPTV
Env fusion inh: blocks HIV Env-driven cell-cell fusion; HeLa-JRFL Env/CEM21 cell fusion, luciferase; inhibition, % at 12.3 µM; 1.1% of 360,000 active; AID 651610;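 active means mean replicate inhibition score of at least 50 and every replicate individually at or above 50; inconclusive means only one of the two criteria met; inactive means mean below 50 and not all replicates reaching 50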;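 further: 0% = plate neutral controls and 100% = maraviroc near 300 nM; one replicate is shown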
CSC inhib: cancer stem cell inhibition | cancer stem cell-like cells viability, luminescence | inhibition, % at 7.5 µM | 1.1% of 300,000 active | AID 2717;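 active means mean at 75% or more and at least half the replicates too; inconclusive means mean and replicates disagree; tested in HMLE shEcad cells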;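 further: 0% = median of negative and 100% = median of positive control wells; the first replicate is given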
UUG fidelity: yeast start codon fidelity modulation; S. cerevisiae UUG-firefly luciferase reporter, luminescence/redox ratio; activity score, % at 18.7 µM; 0.13% of 350,000 active; AID 602363;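 active means replicate mean at a twofold rise or more, about +100% in these data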;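 further: firefly luciferase made from a UUG start codon reports start codon fidelity; reporter light over untreated wells divided by growth signal over untreated wells; some hits fall short of that in this replicate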
Rce1 inh: inhibitors of yeast Ras-converting enzyme; 0.27% of 290,000 active; yeast membranes, quenched prenylated peptide cleavage fluorescence; Q03530; calls only;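 active means fall in fluorescence gain of 50% or more versus controls, with final raw signal at or below 3038400; inconclusive means same 50% fall but final raw signal above 3038400; inactive means fall in fluorescence gain under 50%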;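 further: plate controls were neutral control wells for no effect and wells lacking membranes for full effect; tested at 10 µM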
Target sequence (Q03530 whole entry, looked up): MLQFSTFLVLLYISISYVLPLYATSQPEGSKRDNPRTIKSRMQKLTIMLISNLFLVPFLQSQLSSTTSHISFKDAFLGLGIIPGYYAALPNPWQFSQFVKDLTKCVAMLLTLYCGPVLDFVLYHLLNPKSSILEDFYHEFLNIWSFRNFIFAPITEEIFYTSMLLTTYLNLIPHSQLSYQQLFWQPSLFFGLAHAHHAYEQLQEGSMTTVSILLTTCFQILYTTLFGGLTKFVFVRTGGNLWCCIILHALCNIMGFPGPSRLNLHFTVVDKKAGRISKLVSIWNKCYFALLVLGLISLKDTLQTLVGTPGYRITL
eIF4H FP inh retest: recorded beside eIF4H FP inh, whose call it bears; inhibition, %; compound at 20 µM; confirmation average;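 mean of two retest wells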
PABP FP inh retest: second read-out of PABP FP inh, no call of its own (marks repeat the call); inhibition, %; compound at 20 µM; confirmation repeats;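 mean of two retest wells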
MT1-MMP act inh RFP: further read-out of MT1-MMP act inh, marked with its call; RFP signal change, %; measured here: RFP expression control read;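 0 = vehicle wells; hits needed this value within 50% of zero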
* hit, by the source's call; i = inactive; ? = inconclusive; · = not tested or not shown; + = active, no number; & = joins results of further samples.

SMILES	MT1-MMP act inh	MT1-MMP act inh RFP	eIF4H FP inh	PABP FP inh	Env fusion inh	CSC inhib	UUG fidelity	Rce1 inh	others
CCN(CC)CCn1c(=S)[nH]c2cc(C(=O)NCc3ccc(C)cc3)ccc2c1=O	4	3	-2	1	-3	-7	-19	i
CCc1ccc(NC(=O)C/C(C)=N/NC(=O)OCc2ccc(OC)cc2)cc1	8	9	-7	-3	·	·	-14	i
COc1ccc(NC(=O)c2ccco2)cc1N	4	4	92*	74*	-37	-7	-15	i
O=C(/C=C/c1ccc(OCCCF)cc1)N1CCOCC1	1	3	3	-5	-29	-8	-11	i
CCCCCC(=O)NC(=S)Nc1ccc(N2CCCCC2)c(Cl)c1	-4	4	-5	-10	-33	-3	-9	i
COc1ccccc1/C=N/NC(=O)CNC(=O)c1ccc(S(=O)(=O)N2CCCC2)cc1	0	0	-7	-4	1	0	·	i
COc1ccc2oc(C(=O)OCC(=O)N(C)CC(=O)Nc3ccc(F)cc3)c(C)c2c1	3	1	·	·	10	·	·	i
O=C(c1ccccc1)C1CN(Cc2ccccc2)CCC1(O)c1ccccc1 (stereo unspecified)	0	5	-12	-17	-22	10	-19	i
Cc1cccc(C)c1Oc1nc(-c2ccccc2)ncc1S(=O)(=O)c1ccccc1	-9	-11	-9	-2	·	33	·	i
c1ccc2c(c1)[nH]c1c(N3CCSCC3)ncnc12	-3	-14	·	·	?	8	-12	·
O=C(O)CN(c1ccccc1F)S(=O)(=O)c1ccccc1	-1	1	-2	-1	-7	-2	-8	i
Cc1cc(C(F)(F)F)nn2cnnc12	0	7	2	32	5	-2	·	i
Nc1nc(SCC(=O)Nc2cccnc2Cl)n[nH]1	3	9	-11	10	1	-6	·	i
CC[C@@]1(C(=O)OC)N[C@H](CN(C)S(=O)(=O)c2ccc(-c3ccccc3)cc2)[C@@H]2C(=O)N(C)C(=O)[C@@H]21	0	0	·	·	5	19	2	·
COc1ccccc1-c1cc(C(F)(F)F)nc(S(=O)(=O)CCCC(=O)NCc2ccc(F)cc2)n1	5	-12	4	6	-64	77*	·	+

Next part, starting with the last 2 of the part before.
SMILES	MT1-MMP act inh	MT1-MMP act inh RFP	eIF4H FP inh	PABP FP inh	Env fusion inh	CSC inhib	UUG fidelity	Rce1 inh	others
CC[C@@]1(C(=O)OC)N[C@H](CN(C)S(=O)(=O)c2ccc(-c3ccccc3)cc2)[C@@H]2C(=O)N(C)C(=O)[C@@H]21	0	0	·	·	5	19	2	·
COc1ccccc1-c1cc(C(F)(F)F)nc(S(=O)(=O)CCCC(=O)NCc2ccc(F)cc2)n1	5	-12	4	6	-64	77*	·	+
COC(=O)c1ccc2nc(-c3ccc(F)cc3)c(Cc3ccc(OC)cc3C)n2c1	-6	-3	·	·	-29	·	-5	·
O=C(O)c1ccc2c(c1)OCCCO2	8	6	-6	7	-1	2	-19	i
C(#Cc1ccccc1)C[N+]1(CC#Cc2cccc3ccccc23)CCOCC1	-4	1	-3	-6	-12	·	·	i
Cc1ccc(NC(=O)c2sc3ncn(CC(=O)N4CCN(c5ccccn5)CC4)c(=O)c3c2C)cc1F	5	-2	-1	-8	0	4	-10	i
CN(C(=O)CCc1nnc(-c2ccc(-c3ccccc3)cc2)o1)C1CCOCC1	·	·	-11	-4	38	4	-16	i
COC(=O)C(NS(=O)(=O)c1ccccc1Cl)c1ccccc1 (stereo unspecified)	-6	1	4	10	-9	-10	·	i
CC(=O)Nc1ccc(NC(=O)C2CC(=O)N(c3ccc(Cl)cc3)C2)cc1 (stereo unspecified)	0	5	6	-1	-7	-17	-16	i
CC[C@@H]1C=C(C(=O)O)[C@H](c2ccc(C)cc2)N1S(=O)(=O)c1ccc(C)cc1	4	4	·	·	-21	·	-10	·
COC(=O)C(C)Sc1nnc(Cc2cc(=O)[nH]c(=O)[nH]2)n1-c1ccc(Cl)cc1 (stereo unspecified)	-6	-1	79	119	-8	2	-5	i	eIF4H FP inh retest=15;PABP FP inh retest=29
Cc1cc(C)c(S(C)(=O)=O)c(S(=O)c2ccc(Cl)cc2)n1 (stereo unspecified)	-3	-3	2	4	·	-11	·	i
O=C(c1ccco1)N1CCN(C(=S)Nc2cc(F)cc(F)c2)CC1	3	0	-16	-4	-200	-5	-25	i
CC(C(=O)N1CCc2ccccc21)N1CCN(S(=O)(=O)c2ccc3c(c2)OCCCO3)CC1 (stereo unspecified)	3	-7	·	·	10	·	-27	·
CCOc1ccc(NCCC(=O)c2ccc3c(c2)OCO3)cc1	-1	4	-3	-1	·	36	-9	i
O=C(Nc1cccc(Cl)c1)C1CCCN(S(=O)(=O)c2cnc[nH]2)C1 (stereo unspecified)	-1	1	-6	7	?	7	-25	i
O=C(COc1ccccc1)Nc1nnc(COc2ccccc2)s1	2	-2	-1	-7	9	13	-15	i
Cc1sc2ncnc(N/N=C/c3ccccc3O)c2c1C	4	-7	12	-4	-364	105*	-49	i
Nc1ccc(S(=O)(=O)NC2(C(F)(F)F)NC(=O)N(c3ccccc3Cl)C2=O)cc1 (stereo unspecified)	0	7	8	10	4	-4	·	i
O=C(c1cccc(S(=O)(=O)N2CCCC2)c1)N1CCCc2ccccc21	-1	-1	-4	15	8	-7	·	i
CSc1nnnn1CCn1nnnc1SC	-6	2	-16	6	·	·	-27	i
C[C@H](NC(=O)N1CCn2c1nc1ccccc12)C(=O)NCc1ccccc1	2	2	-3	3	10	-6	-2	i
C[C@@H]1CN([C@@H](C)CO)C(=O)CCCn2nncc2CO[C@@H]1CN(C)C(=O)Nc1cccc(C(F)(F)F)c1	4	5	·	·	10	·	-11&33	·
COc1ccc(C)cc1C(=O)C1CC(C(=O)O)C(C)(C)C1C (stereo unspecified)	2	6	-2	-4	·	-12	·	i
CC(C)=CCC/C(C)=C/CNC(=O)C[C@H]1C[C@H](C(=O)N(C(C)C)C(C)C)[C@@]2(C)c3[nH]c4cc(CCC(=O)N(C)C)ccc4c3CCN2C1=O	-3	-16	·	·	-31	·	9	·
COc1ccccc1N1CCN(CCc2n[nH]c(=S)n2-c2ccccc2)CC1	4	5	-4	0	35	-2	-2	i
CC(C)Oc1ccc(-c2nc(NCC3CCCO3)c3ccccc3n2)cc1 (stereo unspecified)	2	-4	-6	3	16	30	-7	i
CC(C)COC(=O)Nc1ccc(C(=O)O)cc1	4	9	-13	-3	-45	-5	-23	i
COc1ccc(S(=O)(=O)N2CCC(n3cnc4cc(C(F)(F)F)ccc43)CC2)cc1	3	0	0	4	-40	-11	-24	i
Cc1cc(-n2c(C)cc(C(=O)CN3C(=O)NC4(CCCCC4C)C3=O)c2C)no1 (stereo unspecified)	-5	-2	5	9	·	-3	-11	i
O=C1CCCC2=C1C1(CCCC1)N=C(Nc1nc3ccccc3o1)N2	2	1	-1	4	-24	·	-14	·
Cc1ccccc1C(=O)NC=C1C(=O)OC(C)(C)OC1=O	7	5	-8	-10	1	2	18	i
COc1cccc(-c2nc(CS(=O)CC(=O)NCCCOC(C)C)c(C)o2)c1 (stereo unspecified)	4	3	3	15	-5	·	-12	i
COc1ccc(CCNC(=O)CN2C(=O)NC(CCSC)C2=O)cc1 (stereo unspecified)	1	2	-13	-10	9	-11	·	i
COc1ccc(OC)c(S(=O)(=O)N2CCN(CC(O)COc3ccccc3)CC2)c1 (stereo unspecified)	-1	-1	-19	5	8	-4	-20	·
O=C(NC1(C(F)(F)F)NC(=O)N(C2CCCCC2)C1=O)c1ccco1 (stereo unspecified)	1	0	-2	-1	6	-5	·	i
CCCS(=O)(=O)N1CCCC(C(=O)NCCc2ccc(OC)c(OC)c2)C1 (stereo unspecified)	0	4	-4	-2	·	-2	-7	i
O=C(CCc1nc2sc3c(c2c(=O)[nH]1)CCCC3)Nc1ccccc1Cl	0	1	·	·	5	·	-15	i
O=C(NCc1cccnc1)c1ccc2sc([C@H]3C[C@H](O)[C@@H](CO)O3)nc2c1	-2	6	·	·	19	·	-10	·
CC1OC23CCCCC2C(C#N)(C(=N)O3)C1(C#N)C#N (stereo unspecified)	-2	6	40	10	-9	-20	-7	i
COc1ccc(N2CCN(C(=O)Cn3cnc4c(cnn4-c4ccccc4)c3=O)CC2)cc1	0	-2	-2	-3	1	-9	1	i
O=S(=O)(c1ccccc1)N(Cc1ccccn1)Cc1ccccn1	1	3	-5	1	16	·	-15	i
COc1cc(/C=N/NC(=O)c2nonc2C)ccc1O	4	4	1	-9	6	-4	-13	i
Cn1c(CCNC(=O)c2cc(COc3ccc(F)c(F)c3)on2)nc2ccccc21	-1	5	-5	-2	3	-27	-7	i
Cc1cc(C)cc(-c2nnc(SCC(=O)NCc3cccs3)o2)c1	5	7	4	-13	·	-16	-2	i
CCn1nc(C)cc1C(=O)Sc1ccc(C)cc1	-6	-4	-15	-2	11	0	·	i
CCCCCCCNC1=CC(=O)CC(c2ccccc2)C1 (stereo unspecified)	-5	-13	-14	0	25	45	-2	i
COc1cccc(NC(=O)COC(=O)/C=C/c2ccc(Cl)cc2Cl)c1	-2	-1	4	3	3	2	·	i
OC[C@@H]1CN(Cc2ccc(F)cc2)C[C@H](n2cnc3c(NCc4ccncc4)ncnc32)O1	5	2	·	·	-11	·	-17	·
CCCCOc1ccc(NC(=O)CN2CCN(C(=O)OCC)CC2)cc1	2	-2	1	-2	·	·	-12	i
O=C(/C=C/c1ccccc1)Nc1cccc(C(=O)NCCc2ccccc2)c1	5	-5	·	·	-19	·	-1	·
FC(F)Oc1ccc(NC(=S)Nc2ccc3cn[nH]c3c2)cc1	2	3	2	-2	3	-4	-23	i
O=C1c2ccccc2C(=O)N1CCCn1ccnc1	-1	1	-7	-3	14	-7	-16	i
Cc1onc(-c2c(Cl)cccc2Cl)c1C(=O)N(C)Cc1ccccc1	-4	0	-4	-6	0	3	-7	i
CC(C)COc1cccc(-c2cc(C(=O)N/N=C/c3ccncc3)c3ccccc3n2)c1	4	5	0	-10	·	-2	-16	i
CC(=O)Nc1ccc(S(=O)(=O)Oc2cccc(N3C(=O)C4CCCCC4C3=O)c2)cc1 (stereo unspecified)	4	0	-12	6	13	-20	-11	i
Cc1ccc(-c2cc(Cc3cccs3)c(=O)[nH]n2)cc1	3	-3	-5	-6	-1	-11	-24	i
Cc1cccc(NC(=O)c2ccc(S(=O)(=O)N3CCCCCC3)cc2)n1	-3	-17	·	·	-10	-6	·	i
COc1ccc(N2C(=O)CC(Cc3ccccc3)C2=O)cc1 (stereo unspecified)	1	0	-10	1	-25	-4	-23	i
O=C1N=C(N2CCN(c3ccccc3)CC2)S/C1=C/c1ccco1	6	4	44	0	-16	3	-4	i
Cn1c(SCC(=O)OCc2ccccc2)nnc1-c1ccco1	3	3	3	10	-18	-10	-23	i
COC(=O)c1ccc(C2/C(=C(/O)c3ccc4c(c3)CC(C)O4)C(=O)C(=O)N2Cc2ccncc2)cc1 (stereo unspecified)	4	5	-5	1	-1	-14	-21	i
The list continues:
SMILES	MT1-MMP act inh	MT1-MMP act inh RFP	eIF4H FP inh	PABP FP inh	Env fusion inh	CSC inhib	UUG fidelity	Rce1 inh	others
COc1ccccc1CCNC(=O)c1cc(-c2ccccn2)nc2ccc(Br)cc12	·	·	6	12	·	-7	·	i
O=C1C2CCCN2C(=S)N1Cc1ccccc1 (stereo unspecified)	3	-1	-5	-6	1	10	-8	i
O=C(O)C(=O)Nc1ccc(NC(=O)C(c2ccccc2)c2ccccc2)cc1	2	4	-6	3	-1	-7	-4	i
O=C(Nc1ccccc1Br)c1cc[n+]([O-])cc1	-1	1	0	6	-24	-3	·	i
CCn1c(COc2ccccc2)nnc1SCC(=O)Nc1cc(OC)ccc1OC	3	0	-3	-5	-113	-7	-16	i
